Mtb hypoxia inh: Mtb hypoxia fluorescent reporter inhibition | M. tuberculosis hypoxia-regulated fluorescent reporter, fluorescence | fluorescence inhibition, % (concentration not given with the values) | 300,000 tested, 0.1% active | AID 1159583;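 active means 35 to 45% if threefold the growth effect, above 45% if 1.5-fold the growth effect; inactive means the rest, general growth blockers included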;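 further: wells of about 50 µL received 100 nL stock; 0% = vehicle wells and 100% = reference inhibitor wells; whole bacteria with a GFP reporter of the hypoxia response; strong numbers were not always called active; many hits fall short of the cut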
BJeLR lethal: BJeLR cell viability loss; BJeLR (HRASV12) viability, CellTiter-Glo ATP luminescence, 48 h; reference of the scale not given here; inhibition, % (test concentration not listed); 300,000 tested, 0.17% active; AID 1554;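 active means replicate mean above 50%; inconclusive means above 50% but judged a plate artefact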;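 further: 50 nL library stock added to about 25 µL; numbers are from one replicate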
RN4220 kill: S. aureus RN4220 growth inhibition; inhibition, % (no concentration beside the values); 330,000 tested, 0.33% active; OD600, 16 h;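 active means z-score of -3 or lower and OD600 up to 0.18 on both plates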;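 further: plate controls were untreated cells for no effect and reference antibiotic for full effect; stock transfer was 100 nL into about 80 µL; one replicate is shown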
PrP UTR inh: suppresses PrP 5' UTR mRNA reporter expression; cell-based PrP 5' UTR mRNA reporter, plate reader; inhibition, % (no concentration beside the values); 340,000 tested, 0.35% active; AID 488862;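 active means every replicate at 50% or more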;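 further: 0 = median of the neutral control wells; tested in H4 reporter cells; numbers are from one replicate; inactives centre near -14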
ugtP null kill: kills S. aureus RN4220 lacking UgtP | 330,000 tested, 0.54% active | growth inhibition, % (concentration not given with the values) | AID 1259309 | S. aureus RN4220 ugtP deletion, OD600 growth, 16 h; some inactives read as strong as hits;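 active means z-score under -3 and OD600 up to 0.15 on both plates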;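 further: plate controls were untreated wells for no effect and antibiotic for full effect; wells of about 80 µL received 100 nL stock; the first replicate is given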
Autofluor counter: counter-screen for toxin protease inhibitors: compound fluorescence; compound autofluorescence counterscreen, microsphere flow cytometry; stronger effect = higher value; fluorescence intensity (concentration not given with the values); 360,000 tested, 3.1% active; AID 624483;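 active means at least 3 SD above the mean of all compounds, about 16000 in these data; inconclusive means too few beads counted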;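 further: 100 nL of 1 mM stock went into each well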
Mtb hypoxia inh growth: also measured in Mtb hypoxia inh; calls as there; growth inhibition, %; measured here: M. tuberculosis growth (absorbance);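 0% = vehicle and 100% = reference antibiotic; read after six days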
The depositor's hits bear a star; ? = inconclusive; / = no result given.

SMILES	Mtb hypoxia inh	Mtb hypoxia inh growth	BJeLR lethal	RN4220 kill	PrP UTR inh	ugtP null kill	Autofluor counter
COc1ccc(NC2c3ccccc3C(=O)N2Cc2ccc3c(c2)OCO3)cc1 (stereo unspecified)	15	4	0	3.3	-25	8	4337
ON=C1c2ccccc2-c2ccccc21	-17	-1	-1	-3.4	4	52	3753
CC(=O)Nc1ccc(S(=O)(=O)N2C(=O)c3cccc4cccc2c34)cc1	-1	-6	6	2.5	/	2	/
CC(=O)Nc1ccc(NC(=O)CCCCCN2C(=O)c3ccccc3C2=O)cc1	8	15	2	3.8	-13	5	18712*
Cc1ccc(Sc2ccncc2S(N)(=O)=O)cc1	3	-1	10	4.1	-18	10	2042
COc1cc([N+](=O)[O-])ccc1NC(=O)NN1CCN(C)CC1	11	0	2	1.0	4	8	5221
COc1ccc(-c2ccc(=O)n(CC(=O)NCc3ccco3)n2)cc1	-7	-3	9	6.1	-16	-4	2898
CC(C)/C=C/CN1CCC(Oc2ccc(C(=O)N3CCCC3)cc2)CC1	/	/	6	/	-20	/	6015
COc1ccc2c(c1)c(=O)oc1cc(OCC(=O)N3CCCC(C)C3)ccc12 (stereo unspecified)	/	/	-6	1.2	-19	-5	2969
COc1ccc(NC(=O)N(C)C[C@H]2Oc3ccc(NC(=O)Nc4ccc(C(F)(F)F)cc4)cc3C(=O)N([C@H](C)CO)C[C@@H]2C)cc1	-1	6	/	-3.7	65*	14	3635
COc1ccc(OC)c(C=NNC(=O)c2cccc3ccccc23)c1	10	-1	/	3.3	/	5	/
N#Cc1ccccc1OCC(=O)OCC(=O)c1c[nH]c2ccccc12	4	0	/	3.7	-4	2	3709

Structural class: the entries above containing sulfur (2)
SMILES	Mtb hypoxia inh	Mtb hypoxia inh growth	BJeLR lethal	RN4220 kill	PrP UTR inh	ugtP null kill	Autofluor counter
CC(=O)Nc1ccc(S(=O)(=O)N2C(=O)c3cccc4cccc2c34)cc1	-1	-6	6	2.5	/	2	/
Cc1ccc(Sc2ccncc2S(N)(=O)=O)cc1	3	-1	10	4.1	-18	10	2042

Next structures follow:
SMILES	Mtb hypoxia inh	Mtb hypoxia inh growth	BJeLR lethal	RN4220 kill	PrP UTR inh	ugtP null kill	Autofluor counter
O=C(Nc1ccc2oc(-c3ccccc3)nc2c1)c1ccco1	-8	1	18	-6.0	-148	6	2488
CCC(C)NC(=O)CSc1c2c(nc3ccccc13)CCCC2 (stereo unspecified)	7	-2	-12	1.1	-2	6	2627
COc1ccc(NC(=O)CC(CC(=O)O)c2cc(OC)c(OC)c(OC)c2)cc1 (stereo unspecified)	7	12	-1	0.5	-39	0	5925
CN1CCC(CNC(=O)Nc2ccccc2)(c2ccccc2)CC1	-2	7	2	2.6	-26	7	3085
Cc1ccccc1C(=O)N1CCC(C(=O)Nc2ccc3c(c2)OCO3)CC1	1	-5	4	-0.2	-10	0	2038
CC(=O)Nc1ccc(N2C(=O)c3ccc(C(=O)Nc4nnc(SCc5ccc(F)cc5)s4)cc3C2=O)cc1	-9	-2	-5	3.0	-12	-13	2396
S=c1[nH]nc(-c2ccc(Cl)cc2)n1-c1cccnc1	3	2	2	2.3	-5	8	6448
COc1cc(C(C(=O)NCC2CCCO2)N(C(=O)Cn2nnc3ccccc32)c2ccc(C(C)=O)cc2)ccc1O (stereo unspecified)	-2	-4	6	2.3	-17	2	3966
COc1ccc(S(=O)(=O)NCc2csc(C)n2)cc1	17	11	0	7.9	-17	5	3160
Cn1nnnc1NCc1c(F)cccc1Cl	17	5	-4	3.2	-13	3	10540
O=C(N/N=C/c1cn(-c2ccccc2)nc1-c1ccc(F)cc1)c1ccc2c(c1)OCO2	/	/	-5	/	-15	/	2711
COc1ccccc1-n1c(SC(C)C(=O)NCC2CCCO2)nc2cc(Cl)ccc2c1=O (stereo unspecified)	-4	2	-2	-1.0	-19	5	6509
Nc1cccnc1Sc1cc(Cl)c(Cl)cc1Cl	1	10	-5	1.9	-8	3	9729
CCOc1ccc(OCCOc2ncnc3ccccc23)cc1	/	/	-1	3.2	-14	10	2319
O=C1C2CCCCC2C(=O)N1CCCCN1CCN(c2nsc3ccccc23)CC1 (stereo unspecified)	3	20	/	2.9	/	-6	/
O=C(CSc1nccc(=O)[nH]1)Nc1ccc(N2CCOCC2)cc1	6	5	5	-0.1	-3	2	5826
Cc1ccc(S(=O)(=O)CCC(=O)OCCOc2cccc(Br)c2)cc1	7	-2	/	6.5	/	6	/
CC1(C)C=Cc2cc(-c3coc4cc(O)cc(O)c4c3=O)cc(O)c2O1	/	/	-9	28	-36	2	5361
CCCC(=O)Nc1cc(Cl)ccc1C	-5	7	-4	2.1	-7	3	3087
Cc1cccc(C(=O)NCc2nnc(SCC(=O)Nc3nnc(C)s3)n2C)c1	-2	9	-6	-2.8	-3	5	4915
COc1ccc(OC)c(NC(=O)c2oc3c(c2C)C(O)CC(C)(C)C3)c1 (stereo unspecified)	-1	2	-7	6.8	-21	1	5889
O=C(NC1CCCCC1)C(=S)NC1CCCCC1	1	-8	9	-0.5	/	5	/
COCCOC(=O)c1cc(C(=O)c2cc(Cl)ccc2O)coc1=N	-9	5	-5	0.4	-5	-6	2158
CCOC(=O)C(=O)Nc1ccccc1C(=O)OCC	-4	5	-2	3.2	-17	13	3848
CCOc1ccc(NC(=O)CCN2C(=O)C3CCCCC3C2=O)cc1OCC (stereo unspecified)	-7	8	-1	1.0	-28	-2	5230
O=C(O)CNC(=O)C12CC3CC(CC(Cl)(C3)C1)C2	16	-2	-1	6.0	-1	6	3184
COc1ccc(/C=C(/NC(=O)c2cccs2)C(=O)NC(C)(C)C)cc1OC	6	1	-6	5.6	-6	12	4147
O=C(Nc1ccc(F)cc1)C1CCCN(S(=O)(=O)c2ccc(-n3cnnn3)cc2)C1 (stereo unspecified)	15	4	0	3.8	-12	5	3763
CC1=C(C(=O)NCc2ccccc2)C(c2ccc(C)o2)n2ncnc2N1 (stereo unspecified)	6	9	5	3.6	-13	1	20601*
Nc1ccc(O)cc1C(=O)OCC(=O)c1ccc(C2CCCCC2)cc1	11	6	-4	6.1	-14	6	1983
O=S(=O)(NC1=NCCC1)c1cccc(NS(=O)(=O)c2ccc(OC(F)(F)F)cc2)c1	1	-1	7	7.9	-13	-3	2028
CCc1nnc(NC(=O)c2sc3nc4c(cc3c2N)CCCCCC4)s1	6	-1	17	13	-51	-9	2088
CC(=O)Nc1cccc(NC(=O)c2cccc(S(=O)(=O)N3CCN(Cc4ccccc4)CC3)c2)c1	-4	-5	1	2.8	7	3	/
O=C(COC(=O)c1ccccc1Br)Nc1cc(S(=O)(=O)N2CCOCC2)ccc1N1CCCC1	3	9	2	3.4	-15	9	4604
Cc1ccc2cc3c(NC(=O)C4CCCO4)nn(CC(C)C)c3nc2c1 (stereo unspecified)	5	24	5	2.9	-10	-1	9333
CCc1cccc(C)c1NC(=O)CCCN1C(=O)NC(C)(C)C1=O	17	31	/	1.2	-10	10	6284
COCCCn1c(=O)/c(=C\c2ccccc2OC(F)F)s/c1=C(/C#N)C(=O)NC(C)C	/	/	-25	/	-19	/	3384
O=C(CSc1nc(C2CC2)nc2ccccc12)Nc1ccccc1	3	-9	-5	3.4	-6	5	4535
C=CSc1sc(Cl)c(N2CCOCC2)c1[N+](=O)[O-]	4	1	-2	5.9	-11	12	4710
CC(C)C(C(=O)NCC1CCCO1)N(Cc1ccccc1)C(=O)CNS(=O)(=O)c1ccccc1 (stereo unspecified)	12	6	1	3.9	-13	-1	2994
COc1cccc(-c2noc(CCC(=O)NCC3CCCO3)n2)c1 (stereo unspecified)	-7	1	-2	-4.4	1	-4	3239
O=C(Nc1ccc(F)cc1)c1ccc(CSc2ccc(Cl)cc2)o1	3	10	6	-6.4	-14	-4	3357
O=C(COC(=O)c1ccc[n+]([O-])c1)Nc1ccccc1OC(F)F	6	8	/	-0.4	-22	1	3844
O=C1NC(=O)N(c2ccc(F)cc2)C(=O)/C1=C/c1ccc2c(c1)CCCN2Cc1ccccc1	11	8	-11	6.6	-19	10	4726
C=CCc1ccccc1OCC(=O)OCCNC(=O)c1cccnc1	12	7	2	0.6	-9	1	3925
COc1ccc(Nc2ncnc3c2cnn3-c2cccc(C)c2)cc1OC	16	8	2	4.2	-10	11	5679
CCN(CC)c1ccc(NC(=O)c2ccco2)cc1	0	4	7	2.2	-67	0	20274*
Cc1cccc(C)c1Nc1nnc(SCC(=O)c2ccc(Br)s2)s1	/	/	-13	/	3	/	1940
CC(=O)Nc1ccccc1C(=O)C(=O)Nc1cccc(C(=O)N2CCC3(CC2)OCCO3)c1	12	8	-12	13	-10	6	4059
CCC1(C)Cc2c(sc3nc(NN)n(C)c(=O)c23)CO1 (stereo unspecified)	4	8	3	-6.0	-6	-4	2765
O=C(Nc1nc(-c2ccccn2)cs1)c1ccc(F)c(S(=O)(=O)N2CCOCC2)c1	6	14	/	11	42	-5	3887
CC(CC(=O)Nc1ccc(Cl)c(Cl)c1)=NNC(N)=S	18	21	/	2.5	/	-12	/
CC1CN(C(=O)c2scc3c2OCCO3)CC(C)O1 (stereo unspecified)	/	/	/	-0.9	-28	3	2818
CCNC(=O)CC1C(=O)N(c2cccc(C)c2)C(=O)N1CCC(C)C (stereo unspecified)	5	8	-2	5.6	-17	10	3757
Cc1ccccc1OCc1nnc(SCc2cc(=O)[nH]c3ccccc23)n1-c1ccccc1	9	7	0	7.9	-10	-13	2059
CC(=O)N1c2ccc(S(=O)(=O)N3CCCC(C(=O)Nc4cc(C)cc(C)c4)C3)cc2CC1C (stereo unspecified)	0	3	7	-1.7	-1	8	4074
CCCn1c(SCC(=O)NCC2CCCO2)nc2c1c(=O)n(C)c(=O)n2C (stereo unspecified)	15	5	-6	1.4	-22	4	8226
COc1ccc(-n2c(-c3ccco3)nc3ccccc3c2=O)cc1	-3	11	-3	-0.9	-13	0	3736
NC(=O)C1CCN(c2nc(C3CC3)nc3c2nnn3Cc2ccccc2Cl)CC1	-1	8	5	2.0	-69	17	25043*
COCCNC(=O)Cn1nc(-c2ccccc2C)ccc1=O	2	-5	-2	2.2	-17	5	2893

By substructure, those above containing an NH in an aromatic ring.
SMILES	Mtb hypoxia inh	Mtb hypoxia inh growth	BJeLR lethal	RN4220 kill	PrP UTR inh	ugtP null kill	Autofluor counter
N#Cc1ccccc1OCC(=O)OCC(=O)c1c[nH]c2ccccc12	4	0	/	3.7	-4	2	3709
S=c1[nH]nc(-c2ccc(Cl)cc2)n1-c1cccnc1	3	2	2	2.3	-5	8	6448
O=C(CSc1nccc(=O)[nH]1)Nc1ccc(N2CCOCC2)cc1	6	5	5	-0.1	-3	2	5826
Cc1ccccc1OCc1nnc(SCc2cc(=O)[nH]c3ccccc23)n1-c1ccccc1	9	7	0	7.9	-10	-13	2059

The list goes on.
SMILES	Mtb hypoxia inh	Mtb hypoxia inh growth	BJeLR lethal	RN4220 kill	PrP UTR inh	ugtP null kill	Autofluor counter
Cc1cccc(-n2nc3c(c2NC(=O)C(C)C)CSC3)c1	1	-4	-7	12	-3	8	3693
COc1ccc(C(CNC(=O)C(C)(C)Oc2ccc(Cl)cc2)N2CCOCC2)cc1 (stereo unspecified)	3	25	/	9.2	-11	-2	/
CCOC(=O)C1=C(CCc2ccccc2)NC(=O)NC1c1cccc([N+](=O)[O-])c1 (stereo unspecified)	15	8	-6	9.1	7	3	3829
Cc1ccc(C(=O)NN=Cc2ccc(Br)o2)o1	11	8	/	1.6	/	1	/
CCN1CC2=C(OC(N)=C(C#N)C2c2cccs2)/C(=C/c2cccs2)C1 (stereo unspecified)	2	8	-2	8.7	-36	0	8720
O=C(O)CCNC(=O)/C(=C\C=C\c1ccccc1)NC(=O)c1ccccc1	1	-4	-9	0.5	-3	-2	4028
CC(=O)Nc1ccc(Nc2cc(C)nc3c(-c4ccccc4)cnn23)cc1	9	13	/	26	60*	12	2462
O=C(Cc1ccc(Cl)cc1)Nc1ccncc1	16	-3	25	2.0	-45	2	4131
O=C(C=C1NC2(CCCC2)Cc2ccccc21)N1CCOCC1	13	7	/	3.4	/	1	/
COC(=O)C(Cc1ccccc1)NC(=O)CNC(=O)c1ccc(Br)o1 (stereo unspecified)	10	4	/	7.1	-20	12	5044
C=CCn1c(SCc2nc3ccccc3c(=O)[nH]2)nc2scc(C3CC3)c2c1=O	0	9	2	8.5	-9	-5	6323
COCc1cc(CN2CCN(C)CC2)c(O)c2ncccc12	20	6	-5	4.1	-12	3	?
Nc1nc2ccccc2n1C(=O)c1ccccc1	-4	-2	6	6.8	-18	11	2481
Cc1ccccc1-c1ncc(CN2CCC(CO)(CCCc3ccccc3)CC2)cn1	19	14	5	4.3	23	5	3371
